Assay outcomes: PubChem BioAssay, National Center for Advancing Translational Sciences (NCATS)
RE007 growth inh: less growth of the S. pombe RE007 Vpr strain; hit rate 0.21% among 360,000; Potency, µM (series often up to 92.2 µM), for inactives: top-dose activity change, negative = less growth; S. pombe RE007 Vpr strain, BacTiter-Glo ATP luminescence, 24 h; control for the full effect not named in the record; active = well fitted falling curve with a large enough effect; inconclusive = small, poorly fitted or top-dose-only effect; inactive = no such curve, though single readings can be large or run the other way;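 also: % is scaled to controls: 0 for no effect and ±100 for the full control effect; nearly all actives have a fitted effect of over 50% in size; the assay follows cell death caused by Vpr and the record does not say whether a fall means rescue or toxicity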
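Fission yeast RE007 carrying one integrated HIV-1 vpr copy, seeded at OD 0.01 in PMG+AL medium with 23 nL pinned compound. Grown 24 h at 30 degrees; viability read by BacTiter-Glo luminescence after 5 min.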
LASV entry inh: Lassa virus entry inhibition; Lassa virus pseudotype entry inhibition, cell reporter; control for the full effect not named in the record; Potency, µM (highest dose often 37.9 µM), for inactives: at the highest dose activity change, negative = inhibition, usual class: inhibitors; hit rate 1.2% among 300,000; AID 540256; active means well fitted inhibition curve with a large enough effect; inconclusive means small, poorly fitted or top-dose-only effect, or effect the other way; inactive means flat fitted curve, though single readings scatter; tested in HEK293 cells; also: % is scaled to controls: 0 for no effect and ±100 for the full control effect; nearly all actives have a fitted effect of over 50% in size; luciferase read-out
NS1 inh: influenza NS1 inhibition; S. cerevisiae slowed by influenza A NS1, growth recovery by OD600; Potency, µM (titrated, usually from 46.1 µM), inactives show top-dose activity, positive = more growth; hit rate 0.4% among 270,000; AID 2326; active means well fitted rising curve with a large enough effect; inconclusive means small, poorly fitted or top-dose-only effect; inactive means no such curve, though single readings can be large or run the other way; also: nearly all actives have a fitted effect of over 50% in size
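Compounds were scored for reversing the slow growth caused by influenza A NS1 in S. cerevisiae, measured by optical density at 600 nm. Assay medium contained 2% galactose at pH 6.0; NS1-free yeast of the same strain were the positive control.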
MARV entry inh: blocks Marburg virus binding to or entry into cells; Marburg virus pseudotyped entry inhibition, cell reporter; control for the full effect not named in the record; about a third of the inactives were read at about 46 µM; Potency, µM (doses to about 37.8 µM), for the others: at the highest dose activity change, negative = inhibition, actives largely listed as inhibitors; hit rate 1.8% among 300,000; AID 540276; active = well fitted inhibition curve with a large enough effect; inconclusive = small, poorly fitted or top-dose-only effect, or effect the other way; inactive = flat fitted curve, though single readings scatter; tested in HEK293 cells; about a fifth of its hits are not listed in these tables; also: % is scaled to controls: 0 for no effect and ±100 for the full control effect; luciferase read-out
Cruzain inh Det: cruzain (T. cruzi) inhibition with detergent | AID 1478 | purified cruzain, Z-FR-AMC fluorescence, 0.01% Triton | hit rate 0.43% among 200,000 | Potency, µM, without a hit: max response, negative = inhibition, most hits filed as inhibitors | P25779;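 also: plate controls were neutral wells for no effect and buffer without enzyme for full effect; nearly all actives have a fitted effect of over 40% in size; top concentration of the series not given in the record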
Target sequence (P25779 123-467 limits assumed): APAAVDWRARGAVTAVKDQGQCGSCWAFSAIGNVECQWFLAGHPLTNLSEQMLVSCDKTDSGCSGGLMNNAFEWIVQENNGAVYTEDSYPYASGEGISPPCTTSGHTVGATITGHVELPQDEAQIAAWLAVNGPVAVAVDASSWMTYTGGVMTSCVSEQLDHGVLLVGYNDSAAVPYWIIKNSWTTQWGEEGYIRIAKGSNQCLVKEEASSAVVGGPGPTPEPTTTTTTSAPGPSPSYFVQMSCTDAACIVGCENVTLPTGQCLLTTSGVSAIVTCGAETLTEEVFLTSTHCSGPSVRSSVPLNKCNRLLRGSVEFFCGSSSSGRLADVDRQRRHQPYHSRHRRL
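Read-out: AMC fluorescence (360 nm excitation, 450 nm emission), four reads over 2 min, first-to-third difference used. Conditions: cruzain 1.5 nM, Z-FR-AMC 2 uM, pH 5.5 acetate, 5 mM DTT, 0.01% Triton X-100.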
Cruzain inh noDet: cruzain (T. cruzi) inhibition without detergent; purified cruzain, Z-FR-AMC fluorescence, no detergent; Potency, µM, for the others: max response, negative = inhibition, most hits filed as inhibitors; hit rate 2.3% among 200,000; AID 1476;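 also: plate controls were enzyme without inhibitor for no effect and buffer without enzyme for full effect; nearly all actives have a fitted effect of over 40% in size; top concentration of the series not given in the record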
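Detergent-free condition (0.00005% Triton X-100) in acetate buffer pH 5.5 with DTT. 1.5 nM enzyme and compound were pre-mixed 15 min, then 2 uM Z-FR-AMC substrate added; reaction progress from fluorescence change between first and third reads (60 s).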
StopGo reporter: FMDV 2A StopGo reporter, luciferase signal; hit rate 1.2% among 410,000; human cells with a luciferase reporter of 2A StopGo recoding; control for the full effect not named in the record; Potency, µM (top dose mostly 57.9 µM), for inactives: at the highest dose signal change, negative = less light; active = well fitted falling curve with a large enough effect; inconclusive = small, poorly fitted or top-dose-only effect; inactive = no such curve, though single readings can be large or run the other way; tested in HEK293T cells; also: % is scaled to controls: 0 for no effect and ±100 for the full control effect; nearly all actives have a fitted effect of over 45% in size; luciferase light after 4 h
SARS PLP yeast: blocks SARS-CoV papain-like protease in a yeast assay; S. cerevisiae expressing SARS-CoV PLpro, growth rescue; control for the full effect not named in the record; Potency, µM (titrated, usually from 32.9 µM), inactives show at the highest dose activity, positive = growth rescue; hit rate 0.19% among 330,000; active means well fitted rising curve with a large enough effect; inconclusive means small, poorly fitted or top-dose-only effect; inactive means no such curve, though single readings can be large or run the other way; also: 0% is about no effect; nearly all actives have a fitted effect of over 55% in size; growth read by luminescence after 48 h
* = called active by the depositor; ? = inconclusive; . = not tested or not shown; & = joins results of further samples; [ ] = another dose, or the depositor's remark. Unless noted, calls follow the shape of the dose curve; as a rule, active = well fitted curve in the direction sought with a large enough effect; inconclusive = small, poorly fitted or top-dose-only effect, or another doubt; inactive = no such curve, though single readings can be large; an effect the other way counts as inactive or inconclusive. Potency is read from the fitted curve at half-maximal effect.

SMILES	RE007 growth inh	LASV entry inh	NS1 inh	MARV entry inh	Cruzain inh Det	Cruzain inh noDet	StopGo reporter	SARS PLP yeast
Cc1ccc(-c2cc(C(=O)Nc3ccccc3C(N)=O)c3ccccc3n2)o1	11%	?	.	?	.	.	-10%	.
COc1cccc(NC(=O)C(OC(=O)/C=C/c2ccc3c(c2)OCO3)c2ccccc2)c1 (configuration not stated)	9%[3.69 µM]	4%	9%	-3%	-4.6%	20µM*	27%	-3%
C(=N\Nc1ccccn1)/c1c[nH]c2ccccc12	-16%	-9%[46.1 µM]	3%	?	.	.	12%	-1%
NC(=O)c1ccccc1NC(=O)CCCc1ccccc1	-28%	?	-15%	?	.	.	8%	2%
C[C@@H](C(=O)O)c1ccc(-c2ccccc2)c(F)c1	.	.	.	15%&15%	3.5%&2.9%	8%&-7%	-10%	.
CC(=O)/C(=N/Nc1ccc(C)cc1)Sc1nnc(CCc2ccccc2)n1-c1ccccc1	6%	-13%	5%	?	-12%	-1%	10%	-3%
CC(O)[C@@H](C(=O)N1CCNCC1)n1cc(CCCCN)nn1 (some centres not stated)	4%	.	4%	.	.	.	-8%	0%
Cn1c(S(=O)(=O)O)nc2ccccc21	0%	5%	-2%	14%	.	.	-20%	0%
COc1ccc(C(=O)N2CCCC(c3ccccc3)=N2)cc1	0%	12%[46.1 µM]	.	-9%[46.1 µM]	.	.	-3%	-15%
O=C(CN(C(=O)CNS(=O)(=O)c1ccccc1)c1ccc2c(c1)OCCO2)NCc1ccco1	14%	13%	-9%	2%&2%	6.1%	-7%	-16%	-1%
CC1Cc2ccccc2N1C(=O)COC(=O)Cc1ccc(F)cc1 (configuration not stated)	-8%	4%	.	0%	.	.	-26%	-2%
O=C(Cn1cc(C(=O)c2ccco2)c2ccccc21)NC1CCCCC1	9%	9%	.	-20%	.	.	-12%	2%
COc1ccc(C(=O)Oc2ccc3ccc(=O)oc3c2)cc1OC	-9%	?	7%	-7%[46.1 µM]	.	.	45%[activator]	-2%
O=C(c1cccs1)c1c[nH]cc1-c1ccccc1	1%	2%	.	-1%[46.1 µM]	.	.	11%	.
O=C(O)c1cc(=O)n(Cc2ccccc2)c(=O)[nH]1	-3%	6%	2%	11%	.	.	8%	1%
Cc1ccc(CCNC(=O)c2cc3c(-c4ccccc4F)nn(C)c3s2)cc1	.	-6%[46.1 µM]	.	23%[46.1 µM]	-3.4%	?	-20%	.
COc1ccc(S(=O)(=O)N2CCOC2CNC(=O)C(=O)NCCc2ccccc2)cc1C (configuration not stated)	-1%	.	-5%	.	.	.	?	?
CCOc1cc2[nH]c(=O)n(CCCC(=O)NCc3ccc(OC)cc3)c(=O)c2cc1OCC	-12%	6%[46.1 µM]	1%	?	2.3%&0.8%	0%&26%	-7%&-8%	4%
CCc1ccc(NC(=O)Cn2nc(C(=O)O)c3ccccc3c2=O)cc1	-19%	5%	5%	0%[46.1 µM]	.	.	4%	-2%
CCc1noc(C)c1C(=O)OCC(=O)NC(=O)c1ccccc1OC	7%	23%[46.1 µM]	-8%	9%[46.1 µM]	.	.	-14%	-8%
Cc1cccc(Cn2cnc3c(N)c(C)c(C)cc32)c1	-7%	12%[46.1 µM]	.	?	.	.	-14%	-1%
CCN(CC)S(=O)(=O)c1ccc2c(c1)nc(CCC(=O)Nc1ccc(N3CCOCC3)cc1)n2C	-1%	-14%	.	3%[46.1 µM]	.	.	-11%	-2%
Cc1ccccc1NC(=O)Cc1nc(COC(=O)COc2cccc(C)c2C)cs1	17%	20%	.	0%[46.1 µM]	.	.	-7%	-2%
CCCc1[nH]n(-c2ccc(F)cc2)c(=O)c1C=Nc1cccc(F)c1	2%	7%	20%	?	1.7%	?	-29%	28%
Cc1ccc(S(=O)(=O)n2ccc3c2CCCC3=O)cc1	8%	2%[46.1 µM]	-5%	1%[46.1 µM]	.	.	-8%	-2%

The results go on.
SMILES	RE007 growth inh	LASV entry inh	NS1 inh	MARV entry inh	Cruzain inh Det	Cruzain inh noDet	StopGo reporter	SARS PLP yeast
COc1cccc(-c2cc3c(-n4cccc4)ncnc3o2)c1	-7%	-29%	7%	?	-15%	-6%	-3%	-6%
O=[N+]([O-])c1cc(-c2nnc(Nc3ccccc3)c3ccccc23)ccc1N1CCOCC1	-7%	.	-3%	-3%	-6.4%	-4%	-15%	18%
CCOc1ccc(C2=C(C(=O)CC)Sc3nncn3N2C(=O)CC)cc1	.	?	.	.	-11%	28%	?	.
Cc1ccc(-n2ncc(C(=O)NCc3ccccn3)c2C2CCN(C(=O)OC(C)(C)C)CC2)c(C)c1	.	?	.	.	-3.1%	?	3%	.
CCNC(=O)NC(=O)C(C)OC(=O)CCCSc1nc2ccccc2s1 (configuration not stated)	-13%	?	-28%	?	-4.5%	20%	-10%	19%
COCCNC(=S)N1CCN(C/C=C/c2ccccc2)CC1	1%	.	5%	.	.	.	-18%	-1%
COc1ccccc1-n1c(CNCC2CCCO2)nc2ccccc2c1=O (configuration not stated)	10%	-6%	17%	-14%	-3.4%	-12%	-13%	14%
Cc1sc2ncnc(SCC(=O)NC(C)(C)C)c2c1C	6%	?	10%	5%[46.1 µM]	.	.	-9%	-2%
COc1ccc(-c2cc(C(=O)Nc3ccccc3SC)no2)cc1	-7%	1%	-6%	?	4.5%	5µM*	26%	-4%
Cc1cccc(Cn2c(C(=O)OC(C)C)cc3c2ccn3C)c1	-13%	0%	13%	?	-6.2%	-8%	-21%	-23%
CSc1ncccc1C(=O)OCC(=O)NC(=O)NCCC(C)C	-13%	0%	-76%	9%[46.1 µM]	-3.3%	0%	-1%	4%
COc1ccc(-n2c(O)c(C(C)=NCCCn3ccnc3)c(=O)[nH]c2=O)cc1	7%	?	-1%	?	-0.7%	-7%	0%	8%
COc1ccc(C)cc1-n1nnc(S(=O)(=O)c2ccc(C)cc2)c1C	.	-22%[46.1 µM]	.	-3%[46.1 µM]	-2.9%	-3%	-1%	.
CCC1CN(C(=O)N2CCC(C(=O)NCCCc3ccccc3)CC2)c2ccccc2O1 (configuration not stated)	.	-27%[46.1 µM]	.	.	-14%	10%	?	.
CCC(C)(C)NC(=O)Cn1c(-c2ccc(C)cc2)noc1=O	-17%	-2%	2%	10%[46.1 µM]	.	.	4%	0%
Cc1cc(OCc2cc3c(cc2Cl)OCO3)c2c(C)cc(=O)oc2c1	3%	.	11%	.	-1.1%	?	-14%	5%
COC(=O)c1cc(CNC(=O)c2ccc(N3CCCC3)c([N+](=O)[O-])c2)ccc1OC	-4%	.	5%	.	.	.	-22%	-3%
CCOc1cc2c(cc1C=O)OC(C)C2 (configuration not stated)	-6%	-10%[46.1 µM]	.	11%[46.1 µM]	.	.	2%	-3%
Cn1c(Cc2cccs2)nnc1SCC(=O)Nc1ccc(C(N)=O)cc1	0%	2%	.	-6%	.	.	-20%	-1%
COc1cc(-c2nc3ccccn3c2/N=C/c2cccc(F)c2)ccc1O	16%	10%	.	3%	.	.	-17%	0%
NC(=O)c1cccnc1OCC(F)(F)F	6%	15%	5%	4%[46.1 µM]	.	.	-10%	1%
CSc1cc(-c2ccc(Cl)cc2)c(C(=O)NC(C)C)s1	-19%	3%	-3%	14%	-3.5%	11%	-23%	0%
COC(=O)CC1(C(=O)OC)Oc2ccc(Br)cc2C(=O)N1c1cc(Cl)cc(Cl)c1 (configuration not stated)	-3%	15%	-1%	6%[46.1 µM]	.	.	?	-2%
C[C@]12C=CC(=O)C=C1CC[C@@H]1[C@@H]2C(=O)C[C@@]2(C)[C@H]1CC[C@]2(O)C(=O)CO	23%	.	26%	.	-0.9%	3%	-19%&-21%	1%&19%
COC(=O)CSc1nnc(CNC(=O)c2ccc(OC)c(OC)c2)n1C	6%	1%	.	16%[46.1 µM]	.	.	14%	3%

The list continues:
SMILES	RE007 growth inh	LASV entry inh	NS1 inh	MARV entry inh	Cruzain inh Det	Cruzain inh noDet	StopGo reporter	SARS PLP yeast
O=C(CCCC(=O)c1ccccc1)NCc1ccccc1	2%	.	-4%	.	.	.	-6%	-4%
O=C(c1ccccc1F)N(Cc1ccccc1)C1CCS(=O)(=O)C1 (configuration not stated)	21%	?	-3%	8%	6.2%	-2%	6%	3%
Cc1ccccc1C(=O)Nc1ccnn1C1CCN(Cc2cccnc2)CC1	8%	10%	-1%	2%	.	.	-8%	3%
Cc1cc(=O)oc(C)c1C(=O)NCc1ccc(F)cc1	13%	-2%	8%	18%	-2.2%	-7%	8%	10%
O=C1CSc2ccccc2N1Cc1ccc(F)cc1	-23%	-26%	-75%	4%	0.8%	-1%	3%	-7%
COC(C[C@@H](O)CC(=O)[C@@H](C)OCc1ccccc1)OC	15%	.	-1%	.	.	.	6%	-1%
CCNC(=O)C1CC(=O)N(Cc2ccc(F)cc2)C(=Nc2ccc(OC)cc2)S1 (configuration not stated)	0%	?	-4%	14%	-4.1%	17%	.	-2%
COc1ccc(-c2nnc(SCc3nnc(-c4ccccc4)o3)n2C)cc1OC	-6%	6%	-14%	5%	0.0%	11%	32%[activator]	-1%
CCCN(CCC)C(=O)COc1cc(=O)n(CC)c2ccccc12	10%	-16%	-9%	-29%	-0.1%	7%	-1%	4%
c1ccc(CCn2nnnc2C(c2cccnc2)N2CCOCC2)cc1 (configuration not stated)	1%	?	.	17%	.	.	-11%	1%
O=C1NCCc2c1[nH]c1ccc([N+](=O)[O-])cc21	35%	.	1%	13%[46.1 µM]	.	.	3%	2%
NC(=O)CC1Nc2cccc3cccc(c23)NC1=O (configuration not stated)	0%	19%	26%	?	3.4%	5%	-11%	10%
Cc1ccc(S(=O)(=O)N(C)c2ccc(C(=O)NCC(c3cccs3)N3CCOCC3)cc2)cc1 (configuration not stated)	-1%	-23%	2%	23%	.	.	-17%	-1%
CSc1nc(N)nc(SCC(=O)Nc2ccc(Cl)cc2)c1C#N	12%	?	5%	?	-0.2%	14%	?	12%
CCOC(=O)c1ccc([N+](=O)[O-])cc1NC(C)=O	-2%	?	-3%	2%	-2.3%	-3%	-1%	4%
Cc1ccc(N2C(=O)CSC23C(=O)N(CC(=O)NC2CCCCC2)c2ccccc23)cc1 (configuration not stated)	.	-8%[46.1 µM]	.	.	-2.4%	9%	-9%	.
